# Mtb hypoxia rep = PubChem AID 1159583 | M. tuberculosis hypoxia-regulated fluorescent reporter, fluorescence | fluorescence inhibition, % (no concentration beside the values) | 0.1% of 300,000 active;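 active means 35 to 45% if threefold the growth effect, above 45% if 1.5-fold the growth effect; inactive means the rest, general growth blockers included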;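 further: wells of about 50 µL received 100 nL stock; 0% = vehicle wells and 100% = reference inhibitor wells; whole bacteria with a GFP reporter of the hypoxia response; strong numbers were not always called active; many hits fall short of the cut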
# BJeLR viability = MLPCN primary cell-based screen for lethality selective to Ras in HRASV12 cells. 0.17% of 300,000 active. BJeLR (HRASV12) viability, CellTiter-Glo ATP luminescence, 48 h; reference of the scale not given here. inhibition, % (no concentration beside the values);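 active means replicate mean above 50%; inconclusive means above 50% but judged a plate artefact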;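 further: 50 nL library stock added to about 25 µL; numbers are from one replicate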
# PrP 5UTR inh = inhibition of PrP 5' UTR reporter expression; inhibition, % (test concentration not listed); cell-based PrP 5' UTR mRNA reporter, plate reader; AID 488862, 2010; 0.35% of 340,000 active;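 active means every replicate at 50% or more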;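 further: 0 = median of the neutral control wells; tested in H4 reporter cells; numbers are from one replicate; inactives centre near -14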
# Sa ugtP lethal = growth inhibition of ugtP-null S. aureus, primary screen, RN4220 ugtP deletion, OD600. 16 h; some inactives read as strong as hits. 0.54% of 330,000 active. AID 1259309, 2017. growth inhibition, % (no concentration beside the values);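 active means z-score under -3 and OD600 up to 0.15 on both plates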;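 further: plate controls were untreated wells for no effect and antibiotic for full effect; wells of about 80 µL received 100 nL stock; the first replicate is given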
# Autofluor counter = compound fluorescence in toxin protease inhibitor counterscreen; compound autofluorescence counterscreen, microsphere flow cytometry; active compounds read high; fluorescence intensity (test concentration not listed); 3.1% of 360,000 active;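 active means at least 3 SD above the mean of all compounds, about 16000 in these data; inconclusive means too few beads counted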;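 further: 100 nL of 1 mM stock went into each well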
# Sa RN4220 lethal = growth inhibition of S. aureus RN4220, primary screen, OD600; 0.33% of 330,000 active; inhibition, % (test concentration not listed); 16 h; AID 1259311, 2017;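 active means z-score of -3 or lower and OD600 up to 0.18 on both plates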;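 further: plate controls were untreated cells for no effect and reference antibiotic for full effect; stock transfer was 100 nL into about 80 µL; one replicate is shown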
# Mtb hypoxia rep growth = recorded beside Mtb hypoxia rep, whose call it bears; growth inhibition, %; measured here: M. tuberculosis growth (absorbance);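 0% = vehicle and 100% = reference antibiotic; read after six days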
# * marks the source's active call; other numbers are inactive results; u = inconclusive; x = no result given.
SMILES,Mtb hypoxia rep,Mtb hypoxia rep growth,BJeLR viability,PrP 5UTR inh,Sa ugtP lethal,Autofluor counter,Sa RN4220 lethal
CC(=O)Nc1ccc(S(=O)(=O)NC2(C(F)(F)F)NC(=O)N(Cc3ccccc3)C2=O)cc1 (stereo not given),2,4,2,-16,5,5548,0.8
COc1ccc(C(=O)c2coc3ccc(O)c(CN4CCCCC4)c23)cc1,x,x,6,-34,-4,6409,0.4
O=[N+]([O-])c1ccc2c(c1)nc1n2CCSC1,11,-7,-1,-20,9,4228,2.9
N#Cc1cc2c(nc1SCc1ccccc1)CCCC2,12,9,2,-22,1,2060,0.6
COc1cccc(-c2nnc(SCC3CNC(=O)O3)n2-c2ccc(Cl)cc2)c1 (stereo not given),2,-2,13,-31,5,2543,2.6
C=CCn1c(CCNC(=O)c2cccs2)n[nH]c1=S,3,-1,1,-21,2,7773,3.9
COc1ccccc1CCC(=O)Nc1ccc2c(c1)CN(Cc1ccc(C)o1)CC2,-3,16,-9,-26,-8,6834,-0.8
CCOC(=O)N/N=C\c1ccc(OC(=O)c2ccco2)cc1,x,x,2,-27,x,4853,x
CCN(Cc1cnn(C)c1)Cc1nc(C(c2ccccc2)c2ccccc2)no1,13,11,1,-25,-1,4754,6.3
COc1ccc(/C=N/NC(=O)COc2cccc3ccccc23)c(C(=O)O)c1OC,x,x,-1,-7,x,10381,x
Cn1c(=O)c2c(ncn2Cc2cccc(Cl)c2)n(C)c1=O,-4,-5,5,-50,-6,10077,2.1
CCOC(=O)NC(=O)c1cn(-c2ccc(OC)cc2)c(=O)[nH]c1=O,14,-3,-4,8,11,3067,3.7
O=C(Cc1nc2ccccc2[nH]1)NN=Cc1ccccc1,3,-1,x,x,4,x,-2.1
OCCC1CN(Cc2cccc3nccnc23)CCN1Cc1ccc(F)c(F)c1 (stereo not given),8,-5,13,-18,8,2620,3.3
CC(=O)C1=C(C)N(CC2CC2)C(=O)NC1c1ccccc1 (stereo not given),8,5,x,x,-11,x,0.8
COc1ccc(N2CCc3c(C)nc4c(OC)cccc4c32)cc1,11,8,37,-18,-3,4379,0.3
C/C(=N\NC(=O)CN1CCN(S(=O)(=O)c2ccc(C)cc2)CC1)c1cccnc1,x,x,-11,-11,x,2498,x
COc1cccc(N2CC(C(=O)Nc3nnc(SCC(=O)N4CCCC4)s3)CC2=O)c1 (stereo not given),2,6,-4,-16,8,5582,4.4
CNC(=S)N/N=C/c1ccc(N2CCOCC2)s1,x,x,4,-30,x,4594,x
COc1cccc(CNC(=O)CCNC(=O)C2CCN(S(=O)(=O)c3ccc(F)cc3)CC2)c1,7,10,6,0,7,5082,1.7
COC(=O)c1nn(-c2cccc(Cl)c2)ccc1=O,0,-1,-12,-13,1,4386,2.8
Cc1ccc(Oc2nc(-c3ccccc3)ncc2S(=O)(=O)c2ccc(C)cc2)cc1,x,x,0,-18,12,2374,4.4
OCCC1CN(Cc2cccn2-c2ccccn2)CCN1C1CCCCC1 (stereo not given),8,1,7,-10,1,2326,2.8
CCC(CC)c1nc(C#N)c(NCc2ccccc2)o1,7,7,-10,1,6,2558,6.1

# A few values from the results shown.
# In PrP 5UTR inh, `COc1cccc(CNC(=O)CCNC(=O)C2CCN(S(=O)(=O)c3ccc(F)cc3)CC2)c1` has 0
# In PrP 5UTR inh, `COc1ccc(N2CCc3c(C)nc4c(OC)cccc4c32)cc1` has -18
# In BJeLR viability, `CNC(=S)N/N=C/c1ccc(N2CCOCC2)s1` has 4

# Back to the main list; the 5 compounds before the break are reprinted first.
SMILES,Mtb hypoxia rep,Mtb hypoxia rep growth,BJeLR viability,PrP 5UTR inh,Sa ugtP lethal,Autofluor counter,Sa RN4220 lethal
COc1cccc(CNC(=O)CCNC(=O)C2CCN(S(=O)(=O)c3ccc(F)cc3)CC2)c1,7,10,6,0,7,5082,1.7
COC(=O)c1nn(-c2cccc(Cl)c2)ccc1=O,0,-1,-12,-13,1,4386,2.8
Cc1ccc(Oc2nc(-c3ccccc3)ncc2S(=O)(=O)c2ccc(C)cc2)cc1,x,x,0,-18,12,2374,4.4
OCCC1CN(Cc2cccn2-c2ccccn2)CCN1C1CCCCC1 (stereo not given),8,1,7,-10,1,2326,2.8
CCC(CC)c1nc(C#N)c(NCc2ccccc2)o1,7,7,-10,1,6,2558,6.1
O=C(Cc1ccccc1)Nc1ccccc1C(=O)N1CCCCCC1,7,1,-3,-14,6,2516,1.9
Cc1nnc(SCC(=O)c2ccccc2)n1Cc1ccccc1,11,13,5,-13,11,2019,4.0
CC1CCCC(NC(=O)c2ccc3c(c2)N(Cc2ccccc2)C(=O)CS3=O)C1C (stereo not given),x,x,1,-5,4,5990,3.0
CC(=O)Nc1ccc(-c2nnc(SCc3ccccc3C#N)n2C)cc1,11,10,-3,-30,-8,9547,5.7
CC(C)CCNC(=O)c1cc(-c2cccs2)nc2ccccc12,14,8,-10,-10,-3,3776,-1.8
CCN1C(=O)[C@@H]2[C@@H](c3ccc(-c4ccccc4)cc3)N3CCCC[C@@]3(C(=O)OC)[C@@H]2C1=O,x,x,6,-26,x,10204,x
Cc1ccc(S(=O)(=O)N=C2SCCCS2)cc1,12,12,-3,-11,-2,3014,4.1
COc1ccc(OC)c(NC(=O)CS(=O)(=O)Cc2nc(-c3ccccc3C)oc2C)c1,-7,6,1,-32,-3,6761,22
C=C1C(=O)[C@@]23C(O)CC4C(C)(C)CCC(O)[C@@]4(C)C2CCC1C3O (stereo not given in full),x,x,x,x,3,x,15
CCOC(=O)N1CCN(C(=O)c2ccccc2NC(=O)c2ccc(C(C)(C)C)cc2)CC1,6,8,-2,-20,1,2204,2.4
COc1ccc(C2C(C#N)=C(/N=C/N3CCN(C)CC3)OC3=C2C(=O)CC(C)(C)C3)cc1OC (stereo not given),x,x,-8,-6,x,9299,x
CC1CCN(C(=O)CSc2nc3c(cnn3-c3ccc(Cl)cc3)c(=O)[nH]2)CC1,4,0,2,-20,-6,5250,3.4
C=CCOc1ccc(/C=N/NC(=O)C(=O)Nc2ccccn2)cc1OC,x,x,4,2,x,9204,x
O=[N+]([O-])C1C(c2ccccc2)=NOC1c1ccccc1O (stereo not given),0,4,3,-18,6,3379,4.7
CCCc1cc(C(=O)Nc2ccc(Cl)cn2)cs1,4,12,9,-35,13,u,6.4
O=C(Cc1ccc(-n2c(=O)c3ccccc3n(Cc3cccc([N+](=O)[O-])c3)c2=O)cc1)NCC1CCCO1 (stereo not given),-4,-6,-26,x,3,x,1.1
CCCC(=O)Nc1nc(CC(=O)OCC)cs1,3,-4,-8,-25,5,3190,2.5
Cc1ccc(-c2c(C)n([O-])c3c([n+]2=O)CCCCC3)cc1,x,x,5,-31,10,2127,5.4
Cc1cc2nc3c(nc2cc1C)CCCC3,12,-1,1,-36,4,3834,3.7
Cc1ccc(OC(C)C(=O)Nc2ccc(F)cc2)c([N+](=O)[O-])n1 (stereo not given),17,7,x,-37,4,4289,-0.3
S=c1[nH]ncn1/N=C/c1ccc(N2CCOCC2)cc1,x,x,-7,-7,x,9409,x
CCc1cc(=O)oc2cc(C)cc(OCC(=O)NCC(O)c3ccccc3)c12 (stereo not given),2,4,-4,-4,2,5241,2.1
COc1ccc(CCNC(=O)Cn2nc(C)n3nc(-c4ccccc4)cc3c2=O)cc1OC,17,3,-1,9,4,5537,4.3
Cc1ccc2nc(SCc3cccc([N+](=O)[O-])c3)nc(C)c2c1,x,x,-3,-36,-9,4267,20
Cc1cc(=O)n2c(n1)NC(Nc1cccc(C)c1C)=NC2c1ccc(F)cc1 (stereo not given),4,-3,4,x,-6,3578,1.1
O=C(O)c1ccccc1-c1ccccc1C(=O)NNc1ccc([N+](=O)[O-])cc1,10,8,9,-15,7,5835,2.9
CC1=C(C(N)=O)C(c2ccccn2)n2nc(SCc3ccccc3Cl)nc2N1 (stereo not given),11,10,-5,-16,6,8272,6.0
CC(C)NC(=O)CN(C(=O)CCC(=O)Nc1nccs1)c1ccc(C(C)C)cc1,11,12,4,0,-3,3464,0.4
COc1cc(CNC(=O)c2cc3ccccc3oc2=O)cc(OC)c1OC,15,12,-1,-28,4,4784,4.2
C=CCn1c(Sc2ccccc2)nc2c1c(=O)[nH]c(=O)n2C,5,11,7,1,0,3212,-7.2
COc1ccc(F)cc1S(=O)(=O)Nc1cccc(C(=O)O)c1,-3,-2,-5,-19,4,2527,1.8
Cc1ccc(OCCn2cc(C#N)c3ccccc32)cc1,10,4,-1,-8,6,3391,4.5
O=C(Nc1ccnc(-c2cccnc2)n1)c1ccc(F)cc1,-2,3,1,x,9,x,-0.7
CC1(C)Cc2nc3[nH]c(=S)[nH]c(=O)c3cc2CO1,5,-1,-3,-9,1,3805,2.3
O=C(NCCC(=O)N1CCCCC1)c1ccc(Br)cc1,-1,2,7,-43,3,5730,2.5
CCN(CC)C(=O)Cn1cnc2sc(C(=O)N3CCN(c4ccc(OC)cc4)CC3)c(C)c2c1=O,7,14,0,-6,17,8941,2.9
O=C(COc1cc(Cl)ccc1Cl)Nc1nnc(C2CC2)s1,11,10,-2,-18,0,5960,4.4
CCOC(=O)N1CCC(NCCNC(=O)c2ccc(F)cc2)CC1,8,10,x,1,-6,3782,1.8
C[C@H](NC(=O)c1nc[nH]c1C(=O)NCc1ccccc1)C(=O)OC(C)(C)C,x,x,12,-11,x,4363,x
COCCn1nnnc1C(c1cc2ccc(OC)cc2[nH]c1=O)N1CCc2ccccc2C1 (stereo not given),-3,6,-13,-17,5,10847,8.6
Cc1nnnn1/C(=C\c1ccccc1)C(=O)OCC(=O)N(C)C1CCS(=O)(=O)C1 (stereo not given),-1,1,-1,-18,6,4945,4.0
O=C(/C=C/c1ccco1)N(Cc1ccc(F)cc1)C1CCS(=O)(=O)C1 (stereo not given),7,6,5,30,5,6472,1.8
O=C(O)CCC(NC(=O)c1cncc(O)c1)C(=O)O (stereo not given),13,5,9,-30,1,8220,2.0
COC(=O)C(NC(=O)c1ccc(F)cc1)(Nc1nc(C)cs1)C(F)(F)F (stereo not given),9,-8,-4,-20,-11,2832,13
Cn1cc(C(=O)N2CCc3ccccc3C2)c(=O)c2cc(S(=O)(=O)N3CCCCC3)ccc21,-3,-4,-9,x,7,x,9.2
COc1ccc([N+](=O)[O-])cc1N(CC(O)CN1C(=O)NC(C)(C)C1=O)S(=O)(=O)c1ccccc1 (stereo not given),-5,7,-11,-14,17,3709,-0.2
CCC(=O)n1nc(-c2ccc(OC)cc2)nc1N,14,13,-1,-12,0,2930,-0.9
COc1cc(-c2c(C#N)c(N)nc3c2CCCC3)cc(OC)c1OC,4,-6,5,-5,-1,7913,0.3
CCOc1ccc(-c2nnn(CC(=O)Nc3cc(OC)ccc3OC)n2)cc1OCC,7,-2,4,-12,6,12436,4.3
COc1ccccc1C=C1C(=O)NC(=S)NC1=O,-2,-2,x,2,2,3032,4.8
Cc1cccc(/N=C/C2=C(O)CC(C)(C)CC2=O)n1,x,x,-6,-17,x,4152,x
CC1(C2CC2)NC(=O)N(CC(=O)NCC(=O)Nc2ccc(F)c(F)c2F)C1=O (stereo not given),9,6,x,-13,6,4109,3.0
COc1cc2c(cc1OC)C1(CCCC1)CNC2c1cccc([N+](=O)[O-])c1 (stereo not given),-11,-7,9,-21,0,3862,2.3
O=C(NN=Cc1ccc(F)c(F)c1)c1cccc(S(=O)(=O)N2CCCCC2)c1,2,3,x,x,9,x,4.0
O=C(O)Cc1cn(-c2ccccc2)nc1-c1ccccc1,-6,7,1,-12,4,4089,-0.8
COC(=O)c1ccc(C2/C(=C(/O)c3ccc(OC)cc3)C(=O)C(=O)N2CC2CCCO2)cc1 (stereo not given),1,5,1,5,0,9361,2.1
Cc1nn(CC(=O)NCCCN2CCCCC2)c(=O)c2cccn12,-6,0,-4,8,1,4578,2.9
COc1ccc(NS(=O)(=O)c2ccc(O)c(C(=O)OCC(=O)N3CCCCC3)c2)cc1,8,-2,x,-11,26,3733,-4.9
C/C(=N\Nc1nc(-c2ccccc2)cs1)c1cccs1,x,x,-8,-99,x,7124,x
Cc1cc(C(=O)NCc2ccc(S(N)(=O)=O)cc2)cs1,3,-2,9,-34,3,11378,5.2
CCc1cccc(C)c1NC(=S)NCC(c1cccnc1)N1CCOCC1 (stereo not given),4,-1,-7,-4,1,2396,3.2

# Screening data deposited in PubChem by several laboratories.
